PKD1 kinase inh: inhibitors of human PKD1 kinase, biochemical, fluorescence polarization. Serine/threonine-protein kinase D1 (Homo sapiens), Q15139. PKD1 kinase fluorescence polarization assay. inhibition, %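 (about 10 µM by stock and volumes)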. 200,000 tested, 0.056% active. AID 797, 2007;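 active = inhibition of 50% or more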;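 note: controls were vehicle for no effect and a reference inhibitor for full effect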
GALR2 agonist: GALR2 receptor agonists, primary screen, cell-based; activation, %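 (tested at 5 µM)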; GALR2-expressing cells, agonist activation read-out; 140,000 tested, 0.48% active; Galanin receptor type 2 (Homo sapiens), O43603;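 active = above mean plus 3 SD of all compounds, about 5% in these data, not always enough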;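 note: 0% = vehicle buffer wells and 100% = reference agonist at full effect; tested in CHO reporter cells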
Target sequence (O43603 whole entry, looked up): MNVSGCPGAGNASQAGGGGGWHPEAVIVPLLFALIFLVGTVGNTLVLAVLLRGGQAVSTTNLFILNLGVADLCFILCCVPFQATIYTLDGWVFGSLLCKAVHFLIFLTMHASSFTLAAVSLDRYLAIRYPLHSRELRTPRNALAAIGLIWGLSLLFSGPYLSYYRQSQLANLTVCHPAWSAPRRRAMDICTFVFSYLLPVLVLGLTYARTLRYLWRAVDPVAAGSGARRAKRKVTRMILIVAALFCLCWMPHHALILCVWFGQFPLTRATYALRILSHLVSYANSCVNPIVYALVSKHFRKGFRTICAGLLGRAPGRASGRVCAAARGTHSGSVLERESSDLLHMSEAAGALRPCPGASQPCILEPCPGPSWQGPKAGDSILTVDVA
HSV replic up: enhancers of HSV replication in host cells, fold increase, host cell viability. HSV replication augmentation in cells. maximum fold increase. 220,000 tested, 0.005% active;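 active = peak rise of 1.5-fold or more in the series; tested in PC3 cells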;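 note: first round at 10 µM; read as green reporter fluorescence; hits show the peak of a series up to 25 µM; 1 = signal of infected wells without compound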
RGS16-Gao HTS: modulators of RGS16 binding to Galphao, primary screen, biochemical, human proteins, multiplexed bead flow cytometry; binding response (% of control), % at 10 µM; bead-based flow cytometry RGS16-Galphao binding, fluorescence; actives lie on both sides; Regulator of G-protein signaling 16 (Homo sapiens) + Guanine nucleotide-binding protein …; 220,000 tested, 0.38% active;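 active = below 25% or above 175%, edge rows of some plates excepted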;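 note: Galphao activated by GDP with aluminum fluoride before binding; 100% = wells without compound and 0% = beads without RGS; some results beyond the cut were filed as inactive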
Target sequence (O15492 whole entry, looked up): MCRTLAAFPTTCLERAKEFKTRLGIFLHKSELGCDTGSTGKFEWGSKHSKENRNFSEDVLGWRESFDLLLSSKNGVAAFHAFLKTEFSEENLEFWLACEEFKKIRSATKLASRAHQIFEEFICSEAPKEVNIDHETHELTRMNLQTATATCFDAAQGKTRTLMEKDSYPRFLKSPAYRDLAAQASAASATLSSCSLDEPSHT
Target sequence (P09471 whole entry, looked up): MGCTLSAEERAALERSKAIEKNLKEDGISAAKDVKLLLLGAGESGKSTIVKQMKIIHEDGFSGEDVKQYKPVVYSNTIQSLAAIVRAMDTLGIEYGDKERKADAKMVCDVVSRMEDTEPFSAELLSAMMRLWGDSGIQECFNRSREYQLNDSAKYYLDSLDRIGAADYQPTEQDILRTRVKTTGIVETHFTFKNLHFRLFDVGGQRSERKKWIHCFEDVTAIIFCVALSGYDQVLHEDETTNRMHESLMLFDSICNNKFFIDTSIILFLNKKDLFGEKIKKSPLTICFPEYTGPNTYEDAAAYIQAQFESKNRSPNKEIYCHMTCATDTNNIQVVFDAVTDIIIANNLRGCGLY
INS promoter inh: inhibitors of insulin promoter-driven GFP, primary screen, imaging, TRM-6 cells (human fetal islet line), eGFP reporter, cell count; 130,000 tested, 0.9% active; reporter expression induced with tamoxifen; AID 1273, 2008; inhibition, % at 2 µM;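 active = inhibition above the mean plus 3 SD, with well images judged a real hit on visual review, cut at about 60% in these data, passing the limit was not always enough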
INS promoter inh cell count: recorded beside INS promoter inh, whose call it bears; normalized cell count, %; measured here: cell count, toxicity; reference of the scale not given here;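 cells exposed to compound for 48 h; stained nuclei by imaging scaled within each plate; lower means fewer cells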
HSV replic up primary fold: also measured in HSV replic up; calls as there; fold increase; compound at 10 µM; measured here: primary screen fold increase 10 uM; tested in PC3 cells;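 GFP signal in the first replicate; 1 = infected wells without compound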
* marks the source's active call; other numbers are inactive results; i = inactive; . = no result given.

SMILES | PKD1 kinase inh | GALR2 agonist | HSV replic up | HSV replic up primary fold | RGS16-Gao HTS | INS promoter inh | INS promoter inh cell count
CCSc1nc2ccccc2c(=O)n1CCc1ccc(OC)c(OC)c1 | . | . | i | 0.77 | 96.6 | . | .
COc1ccc(OC)c(/C=N/NC(=O)c2cc(-c3ccc(C)o3)nc3ccccc23)c1 | -2.1 | -2.9 | i | 1.08 | 96.7 | 50.0 | 135.1
CC(=O)Nc1ccc(NC(=O)Cn2cc3c(n2)CCC(C)C3)cc1 (centres undefined) | -7.3 | -0.8 | i | 0.93 | 104.2 | 42.9 | 117.8
CC(=O)N1CCc2cc(S(=O)(=O)NC(C(=O)Nc3ccc4c(c3)OCCO4)C(C)C)ccc21 (centres undefined) | -9.4 | -0.7 | i | 1 | 101.1 | . | .
COc1ccc(NC(=O)c2cnc(C)cn2)cc1-n1cnnn1 | -11.2 | 0.3 | i | 0.857 | 98.7 | 46.0 | 132.4
CC(C(=O)Nc1c2c(cc3c1CCC3)CCC2)N1CCCC1 (centres undefined) | -4.1 | -1.6 | i | 0.99 | 92.5 | -30.8 | 119.6
CCCCN1CN(Cc2ccco2)CNC1=S | 5.1 | -1.5 | i | 1.12 | 95.6 | . | .
COC(C(=O)NC(C(C)C)C(C)C)c1ccccc1 (centres undefined) | -6.5 | -0.6 | i | 1.09 | 104.3 | 0.0 | 164.9
O=C(Cc1ccccc1[N+](=O)[O-])N1CCN(c2ccc(F)cc2)CC1 | -4.8 | . | i | 0.93 | 102.1 | 0.0 | 136.7
O=C(c1ccc(COc2ccccc2Cl)o1)N1CCCC1 | -0.8 | -0.1 | i | 0.84 | 100.0 | -32.1 | 91.6
CC(C)Nc1oc(Cc2cccc3ccccc23)nc1C#N | -0.1 | 0.2 | i | 0.81 | 102.5 | -27.3 | 123.1
COCCCN1C(=O)c2ccc(C(=O)O)cc2C1=O | -6.9 | -0.5 | i | 0.92 | 97.2 | -346.7 | 32.1
CCc1ccc(C(=O)COC(=O)c2cccnc2Cl)cc1 | -3.0 | . | i | 0.97 | 101.7 | 57.1 | 102.4
CC(C)(C)n1nnnc1C(c1cccnc1)N1CCN(c2ccccn2)CC1 (centres undefined) | 3.6 | . | i | 0.97 | 96.7 | 0.0 | 94.5
COc1ccc(CCNC(=O)CSc2nnc(NC(C)=O)s2)cc1OC | 7.2 | -2.0 | i | 0.93 | 105.0 | -73.3 | 79.4
C/C=C\C=C/C(=O)Nc1cccc(C2=NOC3(C2)C[C@H](C(N)=O)N(C(=O)CC)C3)c1 (some centres undefined) | . | . | i | 0.96 | 97.0 | . | .
CCC(OC(=O)CCc1nc2ccccc2[nH]c1=O)C(=O)c1ccccc1 (centres undefined) | -6.0 | -0.8 | i | 1.02 | 100.0 | -62.7 | 41.1
CCOc1ccc(CNCCc2ccc(S(N)(=O)=O)cc2)cc1 | -2.5 | . | i | 0.95 | 98.1 | . | .
CCOC(=O)N1CCN(C(=O)Cn2cc3c(n2)CCCC3)CC1 | -2.5 | -1.7 | i | 1.04 | 109.8 | -34.6 | 89.5
COC(=O)c1cc(C)sc1NC(=O)CCCC(=O)O | -1.6 | -0.8 | i | 0.93 | 99.7 | -32.4 | 116.9

3 compounds from above, sorted by the number in HSV replic up primary fold, high to low:
SMILES | PKD1 kinase inh | GALR2 agonist | HSV replic up primary fold | RGS16-Gao HTS
COc1ccc(CCNC(=O)CSc2nnc(NC(C)=O)s2)cc1OC | 7.2 | -2.0 | 0.93 | 105.0
O=C(c1ccc(COc2ccccc2Cl)o1)N1CCCC1 | -0.8 | -0.1 | 0.84 | 100.0
CC(C)Nc1oc(Cc2cccc3ccccc23)nc1C#N | -0.1 | 0.2 | 0.81 | 102.5

Returning to the listing with the 5 entries that preceded the break.
SMILES | PKD1 kinase inh | GALR2 agonist | HSV replic up | HSV replic up primary fold | RGS16-Gao HTS | INS promoter inh | INS promoter inh cell count
C/C=C\C=C/C(=O)Nc1cccc(C2=NOC3(C2)C[C@H](C(N)=O)N(C(=O)CC)C3)c1 (some centres undefined) | . | . | i | 0.96 | 97.0 | . | .
CCC(OC(=O)CCc1nc2ccccc2[nH]c1=O)C(=O)c1ccccc1 (centres undefined) | -6.0 | -0.8 | i | 1.02 | 100.0 | -62.7 | 41.1
CCOc1ccc(CNCCc2ccc(S(N)(=O)=O)cc2)cc1 | -2.5 | . | i | 0.95 | 98.1 | . | .
CCOC(=O)N1CCN(C(=O)Cn2cc3c(n2)CCCC3)CC1 | -2.5 | -1.7 | i | 1.04 | 109.8 | -34.6 | 89.5
COC(=O)c1cc(C)sc1NC(=O)CCCC(=O)O | -1.6 | -0.8 | i | 0.93 | 99.7 | -32.4 | 116.9
COc1cc(NC(=O)c2ccc(C)cc2)c(OC)cc1NC(=O)CN1CCOCC1 | -15.8 | -3.2 | i | 0.94 | 113.7 | . | .
Cc1nc(-c2ccc(S(=O)(=O)NCC3CCN(C(=O)OC(C)(C)C)CC3)s2)cs1 | . | . | i | 0.92 | 82.8 | . | .
Cc1cc(C)c(-c2csc(NC(=O)/C=C/c3cccs3)n2)c(C)c1 | -2.6 | -0.7 | i | 0.95 | 105.2 | . | .
Cc1cc(NC(=O)Nc2ccc(F)cc2)no1 | 0.3 | -1.9 | i | 0.97 | 124.7 | 25.7 | 143.3
Cc1cc(NC(=O)Cn2nnc3sc4c(c3c2=O)CCCC4)no1 | -18.6 | -0.8 | i | 0.95 | 97.6 | . | .
CCOC(=O)CSc1nc(C)c(C(C)=O)cc1C(N)=O | -1.8 | . | i | 1 | 103.4 | . | .
O=C(c1ccccc1)c1cccn1CC(=O)N1CCN(c2ccc(F)cc2)CC1 | -5.9 | -0.8 | i | 0.84 | 101.6 | -28.6 | 100.0
CC(=O)Nc1ccc(NC(=O)CSc2nc3ccccc3o2)cc1 | 3.6 | -0.7 | i | 0.91 | 92.8 | 61.8 | 74.7
O=C(Nc1ccc2oc(-c3ccccc3Cl)nc2c1)c1ncn[nH]1 | -4.8 | 3.3 | i | 0.86 | 101.2 | -31.2 | 78.1
CCOc1ccc(C(=O)NCCCN2CCOCC2)cc1OCC | -0.9 | . | i | 0.94 | 102.0 | . | .
CCOC(=O)C1=C(O)/C(=C/c2cccc(OC)c2O)N=C1C | -6.8 | . | i | 0.93 | 101.8 | -25.0 | 123.5
CCOc1ccc(/C=N/n2nnnc2N)cc1O | . | . | i | 0.92 | 96.8 | . | .
CC(C)CN(Cc1cc(=O)oc2cc(-c3ccccc3)c(O)cc12)CC(C)C | . | . | i | 0.64 | 101.9 | . | .
COc1ccc(-c2nc3ccccc3c(=O)n2NC(=O)Cc2ccccc2)cc1 | -11.0 | -1.2 | i | 1 | 95.6 | . | .
CCOC(=O)c1cc2c(=O)n3ccccc3nc2n(CCCOC)c1=NC(=O)C(C)(C)C | -2.6 | 12.2* | i | 0.99 | 97.6 | -5.3 | 78.3
CCCn1c(=N)n(CC(=O)c2cccs2)c2ccccc21 | -5.4 | -1.3 | i | 1.03 | 100.6 | . | .
COc1ccc(NC(=O)NNc2cc(N3CCOCC3)nc(N3CCOCC3)n2)cc1 | -3.8 | . | i | 1.02 | 97.4 | . | .
COc1ccc(CN2CC(C(=O)NCCCN3CCN(C)CC3)CC2=O)cc1 (centres undefined) | 0.3 | -1.2 | i | 0.9 | 108.6 | -25.8 | 106.4
CCCCSc1cc(C)nc(N)n1 | . | . | i | 1.38 | 98.0 | . | .
Cc1ccc(CN2C(=O)S/C(=C\c3ccccc3OCC(=O)O)C2=O)cc1 | 1.3 | . | i | 0.97 | 103.1 | . | .

Single values from above.
CCSc1nc2ccccc2c(=O)n1CCc1ccc(OC)c(OC)c1 in HSV replic up primary fold has 0.77
CC(C)(C)n1nnnc1C(c1cccnc1)N1CCN(c2ccccn2)CC1 (centres undefined) in HSV replic up primary fold has 0.97
O=C(c1ccccc1)c1cccn1CC(=O)N1CCN(c2ccc(F)cc2)CC1 in INS promoter inh has -28.6

(list continues)
SMILES | PKD1 kinase inh | GALR2 agonist | HSV replic up | HSV replic up primary fold | RGS16-Gao HTS | INS promoter inh | INS promoter inh cell count
Cc1ccccc1NC(=O)COC(=O)c1cc(=O)c2ccccc2o1 | -1.4 | . | i | 0.96 | 35.3 | 63.6 | 66.1
CN(C(=O)C1CCCO1)c1nnc(-c2ccccn2)s1 (centres undefined) | -10.0 | -1.7 | i | 1.09 | 93.2 | . | .
COc1ccc(C2C(C#N)=C(N)SC(N)=C2C#N)cc1OC | -9.1 | -1.1 | . | . | 115.6 | 35.3 | 89.5
Cc1nc(SCC(=O)OCc2ccccc2)c(C#N)c(-c2ccccc2)c1C(=O)Nc1ccccc1 | -9.8 | -1.4 | i | 0.97 | 107.0 | 9.4 | 100.0
CCN1C(=O)C2(/C(=C(\O)c3ccc4c(c3)OCCO4)C(=O)C(=O)N2CCCOC)c2ccccc21 (centres undefined) | -6.3 | -0.9 | i | 1.02 | 100.0 | 42.9 | 112.4
Cc1cc(C(C)(C)C)c(O)c(C)c1CC1=NCCN1 | 4.6 | -2.2 | i | 0.85 | 106.8 | . | .
O=C(COC(=O)c1ncc(Cl)c(Cl)c1Cl)c1ccc(Cl)s1 | 4.1 | -0.8 | i | 0.87 | 107.6 | 8.1 | 103.3
CCCCc1c(O)nc(SCC(=O)N2CCOCC2)n(-c2ccccc2C)c1=O | -0.8 | 0.1 | i | 1.09 | 102.3 | . | .
CCCNS(=O)(=O)c1ccc(CCC(=O)N2CCOCC2)cc1 | -1.2 | -1.6 | i | 0.83 | 101.1 | -15.2 | 126.9
Cc1cccc(NC(=S)N/C(=N/S(=O)(=O)c2ccccc2)c2ccccc2)c1 | 6.9 | -3.0 | i | 0.99 | 99.7 | 8.1 | 120.4
CN1C(=O)/C(=C/c2ccccc2OCc2ccc(F)cc2)N(C)C1=S | 1.6 | 0.6 | i | 1.07 | 94.7 | . | .
CC1/C(=N/O)CC(c2ccccc2)N(C)C1c1ccccc1 (centres undefined) | 2.9 | 2.7 | i | 0.83 | 100.5 | -18.8 | 137.5
N#C/C(=C(/O)COc1ccc(Cl)cc1)c1nc2ccccc2s1 | -6.4 | . | i | 0.97 | 102.3 | . | .
CCOC(=O)N1CCC(N(CCCOC)C(=O)Nc2ccc(CC)cc2)CC1 | -1.4 | 2.4 | i | 1.12 | 93.8 | -57.3 | 42.9
Cc1ccc(CNC(=O)c2oc3ccc(S(=O)(=O)N4CCC5(CC4)OCCO5)cc3c2C)cc1 | -2.3 | -0.8 | i | 0.94 | 101.2 | -47.4 | 219.9
Cc1c(CN2CCCCC2C)c(=O)n(-c2ccccc2)n1C (centres undefined) | -0.3 | 1.3 | i | 0.82 | 83.0 | 45.5 | 103.7
COC(=O)c1ccc(CN2CCN(C3CCCCC3)C(CCO)C2)cc1 (centres undefined) | -7.2 | . | i | 0.99 | 106.9 | . | .
O=C(Nc1ccccc1-c1nnc(SCc2ccc(Cl)cc2Cl)o1)c1ccccc1 | -2.9 | -0.8 | i | 1.03 | 163.0 | . | .
CCOC(=O)c1cnc(SCC(=O)Nc2ccccc2N2CCOCC2)nc1N | 2.2 | -2.7 | . | . | . | 30.8 | 113.4
CC(NC(=O)c1cccs1)C(c1cccs1)N1CCOCC1 (centres undefined) | -9.7 | -1.7 | i | 0.96 | 91.1 | 47.1 | 114.0
CCc1nn(C)c2c(=O)c(=O)c2n(C)[nH]1 | . | . | i | 1.01 | 99.6 | . | .
CCn1c(C)c(C(C)=O)c(N2CCN(c3ccccc3)CC2)nc1=S | -2.1 | -0.5 | i | 1.31 | 93.7 | 13.3 | 91.4
O=C(O)CCCCCN1C(=O)CSC1=S | 16.3 | -0.3 | i | 0.86 | 103.3 | . | .
Cc1ccccc1Nc1nc(N)nc(CCl)n1 | . | . | i | 0.67 | 92.0 | . | .
COc1ccc(/C(C)=N/Nc2cc(C(F)(F)F)ccc2Cl)c(OC)c1 | -13.9 | -1.1 | i | 1.01 | 81.7 | 16.7 | 72.8
Cc1cc(C(=O)N/N=C/c2sccc2C)no1 | -4.9 | -0.5 | . | . | 102.1 | 16.7 | 154.6
Cc1ccc(NC(=S)N=Nc2c(O)[nH]c3ccccc23)cc1 | 1.1 | . | i | 0.91 | 102.2 | . | .
Cc1ccc(OCC(=O)O/N=C(\N)Cc2cccs2)cc1C | -3.6 | -2.0 | i | 0.91 | . | -11.1 | 110.0
CC(C)(C)c1ccc(NC(=S)NCCc2ccccn2)cc1 | . | . | i | 1.06 | 97.0 | . | .

Screens as filed in PubChem.
